TRPML1 agonist: human mucolipin-1 channel agonism. activation, % (concentration not given with the values). AID 624414. TRPML1-expressing cells, Ca2+ dye fluorescence, FDSS; host cell line not named in the record; reference of the full effect not given here. actives 0.12% (n = 410,000); in the data active = activation above about 50%; inconclusive = about 30% to 50%; inactive = below about 30%; note: 0% is about no effect; the text of the record puts the active cut at 80%
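TRPML1-DL cells, Tet-induced overnight (~16 h, 37 degrees C), loaded 45-90 min at room temperature with Ca8 no-wash calcium dye plus quencher. FDSS fluorescence: 10 s baseline, compound pin-transfer, 110 s agonist read, then EC80 54-4 (4uM final) and 110 s antagonist read.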
PINK1 modulator: PINK1 expression modulation; PINK1 immunofluorescence, high-content cytometry, 24 h; Potency, µM (top dose mostly 76.6 µM), for inactives: at the top dose activation (PINK1 increase), usual class: activators; actives 0.2% (n = 410,000); AID 624263; active = well fitted activation curve with a large enough effect; inconclusive = small, poorly fitted or top-dose-only effect; inactive = flat fitted curve, though single readings scatter; cell line not stated here;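 note: potency is the fitted concentration of half-maximal effect; % of control where 0% means no effect; nearly all actives have a fitted effect of over 65% in size; a mitochondrial uncoupler was the plate control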
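PINK1 protein level read as immunofluorescence by microplate cytometer in a fixed, stained stable cell line after 24 h exposure to five compound concentrations, with CCCP as control.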
D2 PAM: human D2 receptor positive allosteric modulation. P14416. DiscoveRx D2 beta-arrestin cells, luminescence, 90 min; 100% = 57 uM dopamine signal. potentiation, % (concentration not given with the values). actives 0.23% (n = 360,000); active = potentiation of 50% or more; inconclusive = 30% to 50%; inactive = 30% or less;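 note: compound concentration not given in the record; tested on top of an EC20 dose of dopamine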
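D2 cells co-treated with compound plus 50 nM dopamine (EC20) for 90 min at 37 deg C to detect potentiation. Beta-arrestin recruitment was read as enzyme-fragment luminescence after 1 h at ambient temperature. Full response was set by 57 uM dopamine.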
Six1-Eya2 inh: blocks human Six1 binding to Eya2; AlphaScreen GST-Six1/His-Eya2 binding, biochemical; active compounds read low; control for the full effect not named in the record; activity change, % (no concentration beside the values); actives 0.56% (n = 360,000); AID 651725; in the data active = activity change below about -65%; inconclusive = about -30% to -65%; inactive = above about -30%; note: % is set by controls: 0 for no effect and ±100 for the full control effect
Target sequence (O00167 whole entry, looked up): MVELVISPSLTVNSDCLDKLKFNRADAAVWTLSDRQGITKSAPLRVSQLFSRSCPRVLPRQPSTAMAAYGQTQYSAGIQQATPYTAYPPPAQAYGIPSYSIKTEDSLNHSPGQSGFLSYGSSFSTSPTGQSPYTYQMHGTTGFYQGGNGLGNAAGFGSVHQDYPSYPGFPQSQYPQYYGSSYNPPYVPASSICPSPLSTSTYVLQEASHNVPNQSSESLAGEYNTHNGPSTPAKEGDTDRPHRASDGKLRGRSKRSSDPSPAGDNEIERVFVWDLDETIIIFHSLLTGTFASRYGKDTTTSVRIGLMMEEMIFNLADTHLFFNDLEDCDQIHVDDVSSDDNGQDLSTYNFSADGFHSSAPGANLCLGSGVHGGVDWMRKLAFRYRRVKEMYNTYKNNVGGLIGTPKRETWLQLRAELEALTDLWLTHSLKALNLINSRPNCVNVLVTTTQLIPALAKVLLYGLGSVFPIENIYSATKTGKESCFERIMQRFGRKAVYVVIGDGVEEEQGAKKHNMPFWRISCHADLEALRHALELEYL
Target sequence (Q15475 whole entry, looked up): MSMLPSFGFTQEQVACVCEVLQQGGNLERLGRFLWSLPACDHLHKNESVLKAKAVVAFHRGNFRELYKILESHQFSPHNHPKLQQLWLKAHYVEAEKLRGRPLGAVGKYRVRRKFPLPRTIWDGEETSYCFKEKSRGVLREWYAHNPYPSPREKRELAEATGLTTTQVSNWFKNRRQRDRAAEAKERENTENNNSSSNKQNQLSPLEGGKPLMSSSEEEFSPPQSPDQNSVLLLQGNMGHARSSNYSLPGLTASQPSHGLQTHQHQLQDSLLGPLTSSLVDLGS
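Compounds are tested against tagged Six1 and Eya2 proteins bridged by glutathione donor and nickel acceptor beads; after a one-hour incubation at 37 °C without light, AlphaScreen emission is recorded.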
D2 ag: agonists of human D2 dopamine receptor (beta-arrestin); P14416; DiscoveRx PathHunter D2 beta-arrestin, luminescence, 90 min; 100% = 57 uM dopamine signal; activation, % (concentration not given with the values); actives 0.084% (n = 360,000); in the data active = activation above about 40%; inconclusive = about 15% to 40%; inactive = below about 15%; note: compound concentration not given in the record; the text of the record calls up to 30% inactive
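DiscoveRx PathHunter D2 beta-arrestin cells (2,100/well) attached overnight, then compound-stimulated 90 min at 37 C in HBSS/10 mM HEPES/0.1% Tween-20 buffer; beta-galactosidase complementation read by luminescence after 1 h at ambient temperature. Dopamine 57 uM final (EC100) as control.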
CtBP-E1A blk: CtBP/E1A binding inhibition; activity change, % (test concentration not listed); AID 651724; actives 0.49% (n = 340,000); AlphaScreen GST-E1A/His-CtBP binding, 1536-well; active compounds read low; control for the full effect not named in the record; in the data active means activity change below about -65%; inconclusive means about -30% to -65%; inactive means above about -30%; note: % is set by controls: 0 for no effect and ±100 for the full control effect
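AlphaScreen with 125 nM GST-E1A and 125 nM His-CtBP (5X stocks) in Tris pH 8.0, 300 mM NaCl, BSA, Tween 20, TCEP. Compounds preincubated 2 h at 37 deg C, then glutathione donor/nickel acceptor beads added for 1 h at 37 deg C in dark.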
* hit, by the source's call; ? = inconclusive; . = no result given; [ ] = another dose, or the depositor's remark.

SMILES	TRPML1 agonist	PINK1 modulator	D2 PAM	Six1-Eya2 inh	D2 ag	CtBP-E1A blk
Cc1ccc(Cn2cc(C=O)c3ccccc32)cc1	1.5	3.4%	3.4	7.3	1.2	14.9
c1ccc2[nH]c(CCNC3CCCCC3)nc2c1	0.1	-1.0%	-20.3	-1.0	-2.9	1.3
CC(C)CCNC(=O)CN1C(=O)CN=C(c2ccccc2)c2ccccc21	0.6	4.9%	-3.1	6.1	-3.3	4.7
CCOC(=O)c1c(C=O)c2ccccc2n1Cc1ccccc1F	2.2	10.4%	-7.3	28.8	-3.5	27.1
O=C1NC(=O)N(Cc2ccccc2)C(=O)/C1=C\c1ccco1	1.3	6.3%	-12.3	?	-0.7	-0.6
O=c1[nH]c(=O)n(Cc2ccccc2)c(O)c1/C=N/Nc1c(F)c(F)c(F)c(F)c1F	6.0	1.7%	1.0	1.0	1.4	4.4
Cc1cccc(C)c1-n1nnnc1C(c1cccc2ccccc12)N1CCC(n2c(=O)[nH]c3ccccc32)CC1 (stereo unspecified)	-0.2	-1.1%	-5.2	1.8	-5.2	6.3
N=C(N)c1c(O)n(C2CCCCC2)c(=O)n(C2CCCCC2)c1=O	3.4	-4.7%	9.9	-3.2	-0.5	6.4
CS(=O)(=O)c1ccc(C2=C(CNC(=O)c3cccnc3)[C@H]3CC[C@@H](C2)N3Cc2ccco2)cc1	-0.1	0.4%	2.2	-2.1	-8.7	0.5
CN(C)C=C1C(=O)N(C2CCCCC2)C(=O)N(C2CCCCC2)C1=O	0.8	6.5%	7.4	8.8	4.9	-1.3
N=C1c2ccccc2CN1NC(=O)c1ccc(Br)o1	6.4	-0.6%	-2.5	1.9	-6.5	.
CCCNC(=O)N1[C@H]2CC[C@@H]1C(C(=O)OC)=C(c1ccc(F)cc1OCc1ccccc1)C2	0.8	-0.3%	-12.3	-2.5	-4.2	1.0
CCOC(=O)C1(c2ccccc2)CCN(CCC(=O)Nc2cccc(Br)c2)CC1	1.2	-0.8%	-5.5	0.1	-2.2	-13.1
O=c1c2ccccc2nc(-c2ccoc2)n1-c1ccccc1	-0.7	5.7%[38.3 µM]	-8.9	-0.9	-1.5	6.6
CCn1c(O)c(C=NCCc2c[nH]c3ccccc23)c(=O)[nH]c1=O	2.3	1.7%[38.3 µM]	-0.8	-0.9	-1.5	6.7
Cc1nc2ccc(Cl)cc2c(=O)n1-c1cccc(Cl)c1	0.6	-1.0%	-5.4	26.6	1.5	-12.6
COc1ccc(-c2n(-c3ccccn3)c3ccccc3[n+]2-c2ccccn2)cc1	-0.5	0.2%	-12.5	9.0	-3.6	.
CCC(=NCCCN1CCOCC1)c1c(O)n(-c2ccccc2C)c(=O)[nH]c1=O	3.8	0.3%	-9.6	10.8	-3.2	5.6
OC1CCCCC1N1CCC(c2ccccc2)CC1 (stereo unspecified)	0.2	1.0%	-14.1	2.4	1.9	2.8
COc1ccc(CCn2c(O)c(C=NCCCn3ccnc3)c(=O)[nH]c2=O)cc1OC	-1.0	-0.5%	-1.6	-0.8	-0.1	-1.0
O=C1CN=C(c2ccccc2)c2ccccc2N1Cc1ccc(C(F)(F)F)cc1	0.7	4.7%[38.3 µM]	-9.5	-3.1	-1.0	3.4
NN=C(N)N	-0.4	0.2%	-10.9	9.4	2.2	-0.2
O=C(O)c1ccc(N=Cc2c(O)n(Cc3ccc(F)cc3)c(=O)[nH]c2=O)cc1	-0.8	-0.4%	-2.3	9.9	-0.4	6.6
CN(C)c1ccc(/C=C2\C(=O)NC(=O)N(CCc3ccc(F)cc3)C2=O)cc1	0.0	1.4%	0.6	-0.2	-7.7	.
CC(=NCCC1=CCCCC1)c1c(O)n(-c2ccccc2)c(=O)[nH]c1=O	1.6	1.2%	-2.6	0.1	-5.5	-12.8
Additional results follow:
SMILES	TRPML1 agonist	PINK1 modulator	D2 PAM	Six1-Eya2 inh	D2 ag	CtBP-E1A blk
CC(=O)Nc1ccc(N=Cc2c(O)n(Cc3ccco3)c(=O)[nH]c2=O)cc1	0.2	-1.5%	-4.7	-18.0	-3.7	-2.3
C=CCn1c(O)c(/C=N/N2CCOCC2)c(=O)[nH]c1=S	0.9	-0.2%	-7.1	3.3	5.0	.
CCC1(Oc2ccccc2)C(=O)NC(=O)NC1=O	-0.6	1.9%	-7.1	0.1	3.3	7.4
CCC(C)NC(=O)CN1C(=O)CN=C(c2ccccc2)c2ccccc21 (stereo unspecified)	-0.1	-1.2%	-6.1	-0.1	-3.5	1.8
COc1ccc(C(=O)NC(=S)N2C[C@H]3C[C@H](C2)c2cccc(=O)n2C3)cc1	.	-1.1%	1.4	2.2	-1.9	5.0
COCCNC(=O)c1c(NC(=O)c2ccc(Br)o2)n(Cc2ccccc2)c2nc3ccccc3nc12	2.3	16.2%	-15.8	4.4	-13.6	-4.6
C[N+](C)(N)CCOC(=O)C(O)(c1ccccc1)C1CCCCC1 (stereo unspecified)	0.3	-0.6%	.	2.8	2.9	-9.5
CCOP(=O)(CN(CC)CCNP(=O)(OCC)OCC)OCC	-0.9	-0.4%	-4.9	-2.7	-1.5	-2.0
CCOC(=O)C1CCCN(Cc2ccc(-c3ccccc3)cc2)C1 (stereo unspecified)	.	?	-79.6	6.3	-2.8	.
CCOc1ccc2nc(N=Nc3c(O)[nH]c(=O)[nH]c3=O)sc2c1	.	-0.8%	-5.9	-0.5	-7.2	-0.5
CN(C)CP(=O)(Nc1ccccc1)N(C)C (stereo unspecified)	-0.6	-0.2%	-12.6	13.4	-4.3	4.2
Oc1c(Cl)cc(Cl)cc1CN1CCN(Cc2ccccc2)CC1	-0.1	?	-21.2	-73.1*	-1.7	-6.4
CCOC(=O)C1CCCCC12C(C#N)=C(N)Oc1n[nH]c(C)c12 (stereo unspecified)	2.4	-1.4%	-9.1	2.2	-3.8	2.3
Cc1ccc(-n2c(=S)[nH]c3ccccc3c2=O)cc1F	-0.9	-0.1%	-9.1	-22.8	-2.2	1.0
CC(=O)N1CC(=O)Nc2ccc(Cl)cc2C1c1ccc(F)cc1 (stereo unspecified)	0.4	5.0%[38.3 µM]	-7.1	5.2	1.7	2.1
NC(Cc1ccc(O)cc1)C(=O)NN=Cc1ccc(N(CCCl)CCCl)cc1 (stereo unspecified)	0.1	-6.1%	-5.9	0.5	5.6	-4.1
O=S(=O)(c1ccc(Cl)cc1)N1Cc2cc(Br)ccc2-n2nncc2C1	0.0	-0.3%	-5.2	7.1	-0.9	7.7
Cn1c(=O)c2c(nc(-c3ccc(N(CCCl)CCCl)cc3)n2C)n(C)c1=O	1.5	-0.4%	-4.4	-2.6	-1.0	-4.2
c1cc2c(cc1N1CCOCC1)CNCc1cnnn1-2	-0.1	-0.7%	-0.2	11.5	-6.4	3.5
O=C1CC(=O)N(Cc2ccccc2)C(=O)N1	-0.1	0.3%	-10.1	6.3	-2.4	1.8
CN(C)c1ccccc1	0.7	0.0%	0.7	7.4	13.3	3.5
Cn1c(=O)cc(SCC(=O)N2CCC3(CC2)OCCO3)c2ccc(Cl)cc21	0.8	2.5%	-14.0	?	-1.9	?
Cc1ccc(NP(=O)(c2ccccc2)c2nc3ccccc3s2)cc1 (stereo unspecified)	1.3	2.7%	-9.2	0.2	-0.7	6.7
O=[N+]([O-])c1cc(Cl)c(Cl)cc1Cl	0.1	-0.8%	-8.7	3.6	2.0	4.6
COC(=O)C1=C(c2ccc(OC)c(OC)c2)C[C@@H]2CC[C@H]1N2C(=O)NCCc1ccccc1	0.0	3.1%	-4.6	1.2	-4.6	2.1
Remaining list, next part.
SMILES	TRPML1 agonist	PINK1 modulator	D2 PAM	Six1-Eya2 inh	D2 ag	CtBP-E1A blk
CCCCn1c(=O)c(C(=O)Nc2ncccc2C)c(O)c2ccccc21	0.0	-0.2%	1.0	-3.4	-7.1	-7.2
CCOC(=O)C(O)(c1ccc(N(CC)C(=O)COc2ccccc2)cc1)C(F)(F)F (stereo unspecified)	0.4	2.6%	-14.3	3.0	-2.0	3.3
CCOP(=O)(OCC)C(NC(C)=O)C(Cl)(Cl)Cl (stereo unspecified)	0.1	4.7%	-16.0	2.6	-2.7	-1.3
CC(C)(C)n1cc(C(=O)c2ccccc2)cc1-c1ccccc1	1.3	2.2%	7.3	-10.4	-5.8	.
Clc1cccc(CN2CCCCC2c2cccnc2)c1 (stereo unspecified)	1.7	17.1%[38.3 µM]	-4.6	4.4	-0.2	33.5
CCOC(=O)C1(CCOc2ccccc2)CCN(C2Cc3ccccc3C2)CC1	-0.3	?	-22.4	-5.5	-2.8	3.1
COc1cc(OC)c(OC)cc1CNCCc1cccc(F)c1	0.3	-0.4%	-9.8	-8.6	-4.1	.
COc1ccc(CC2(CCc3ccncc3)C(=O)NC(=O)NC2=O)cc1	0.1	-0.3%	-10.0	5.6	-4.8	2.2
Cc1cccnc1NC1=NCC(C)S1 (stereo unspecified)	-0.7	-0.4%	-8.6	0.5	-1.9	4.6
CC(C(=O)O)N(C(=O)c1ccccc1)c1ccc(F)c(Cl)c1 (stereo unspecified)	-0.3	-1.8%	-5.2	-9.9	-1.1	-18.8
O=c1[nH]c(=O)n(Cc2ccccc2)c(O)c1C=NCCN1CCNCC1	0.0	2.9%[38.3 µM]	3.0	-5.9	-1.4	15.9
CCCCn1c(O)c(C(C)=Nc2ccc3c(c2)CCC3)c(=O)[nH]c1=O	-0.2	6.7%	-4.1	-5.0	0.2	5.4
CCC12CN3CCN(CC(C3)/C1=N/NC(=O)c1ccncc1)C2	0.0	-1.4%	-0.1	3.0	0.8	12.5
O=c1c2ccccc2nc(-c2ccccc2)n1-c1ccccc1	-0.8	0.9%	-13.8	4.7	-3.8	.
O=C(c1ccc(N2CC3CC(C2)c2cccc(=O)n2C3)c([N+](=O)[O-])c1)N1CCCCC1 (stereo unspecified)	1.1	-1.3%	-1.6	-2.0	-1.9	9.2
O=C1NC(=O)N(c2ccccc2)C(=O)/C1=C/C=C/c1ccco1	2.5	-0.8%	-17.9	-8.7	0.9	3.0
c1ccc(CNC2=NCCS2)cc1	0.3	-2.0%	-30.0	-1.4	-0.4	2.5
Fc1ccc(C2NCCc3[nH]cnc32)cc1 (stereo unspecified)	1.3	2.1%	-13.7	3.4	1.9	-0.3
O=C(Nc1ccc(Cl)cc1)N1CC1	-0.2	-0.3%	-4.1	0.5	0.0	5.5
Cc1ccc(S(=O)(=O)c2nc(-c3ccccc3Cl)oc2N(C)C2CCN(C)CC2)cc1	0.3	-2.0%	-32.6	-22.4	-1.1	-21.4
O=c1c2ccccc2nc(-c2ccccc2)n1-c1ccncc1	-0.3	.	12.0	5.0	0.4	-10.3
COC1C(OC(=O)c2ccc(C)[nH]2)C(O)C(Oc2ccc3c(O)c(NC(=O)c4ccc(O)c(CC=C(C)C)c4)c(=O)oc3c2Cl)OC1(C)C (stereo unspecified)	.	13.0%	18.6	-25.1	.	0.6
Nc1cccc(SC2CC(=O)N(c3ccc(Cl)cc3C(=O)c3ccccc3)C2=O)c1 (stereo unspecified)	1.7	8.6%	-2.4	-3.7	-3.2	-5.6

Structural class, the entries above with a nitro group on carbon (two)
SMILES	TRPML1 agonist	PINK1 modulator	D2 PAM	Six1-Eya2 inh	D2 ag	CtBP-E1A blk
O=[N+]([O-])c1cc(Cl)c(Cl)cc1Cl	0.1	-0.8%	-8.7	3.6	2.0	4.6
O=C(c1ccc(N2CC3CC(C2)c2cccc(=O)n2C3)c([N+](=O)[O-])c1)N1CCCCC1 (stereo unspecified)	1.1	-1.3%	-1.6	-2.0	-1.9	9.2

Screening results as filed in PubChem.

Not all compounds are listed; rates above refer to the full screens.
